Assay outcomes: PubChem, Fisher Drug Discovery Resource Center
NPYLR7 ag = activates Aedes aegypti NPYLR7 receptor; HEK293T NPYLR7/Galpha15, GCaMP6s calcium fluorescence; activation, % at 10 µM; hit rate 0.15% among 270,000; in the data active = activation above about 40%;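 note: 0% = vehicle and 100% = reference agonist at the receptor; some compounds past the cut are filed as inactive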
NPYLR7 ag max-min = further read-out of NPYLR7 ag, marked with its call; activation, %; measured here: Max-Min RFU normalised activation; some inactives read as strong as hits;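 span of the calcium signal over five minutes; 0% = vehicle and 100% = native peptide agonist; compound fluorescence can raise it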
Starred values were filed as active, the others as inactive; & = joins results of further samples. These rows are one share of the data; rates above refer to the full screens.

SMILES	NPYLR7 ag	NPYLR7 ag max-min
COCCCNc1nc2ccccn2c1C#N	4	3
COc1ccc(-c2cccc3c2COCC(=O)N3C)cc1OC	6	2
Cc1cc(Br)ccc1N1C(=O)c2ccc(-c3nc4ccccc4c(=O)o3)cc2C1=O	-5	-9
CC(O)CN1C(=O)CSC1c1ccc(F)cc1 (stereo not drawn)	25	18
Cc1ccc(-c2nnc(SCCCC(=O)NCCc3ccccc3)n2-c2ccc(C)cc2)cc1	5	14
COc1cccc2cc(C(=O)Nc3ccc(C)cc3)c(=N)oc12	-8	-12
O=C(OCc1cc(-c2ccc(F)cc2F)on1)c1ccccc1	-3	-5
COc1ccc(OC)c(C2c3cc4c(cc3OC(=N)C2C#N)OCO4)c1 (stereo not drawn)	5	2
CCC(CNC(=O)N1CCN(CC2CCOC2)CC1)c1ccccc1 (stereo not drawn)	-5	-6
CC(C)n1cc(C#N)c(NS(=O)(=O)c2cccs2)n1	-24	-26
CN(CC1Cc2ccccc2O1)C(=O)c1cccc(C#CC(C)(C)O)c1 (stereo not drawn)	15	7
COC(=O)C1=C(C)N=c2s/c(=C/c3ccc(OC)cc3)c(=O)n2C1c1cccs1 (stereo not drawn)	-5	-9
Cc1nn(-c2ccccc2)c(C)c1NC(=O)NC1CCCN(C2CCCCCC2)C1 (stereo not drawn)	17	8
CN(C)CC1(O)CCCN(C(=O)CCn2ccccc2=O)CC1 (stereo not drawn)	10	0
O=C(NNC(=O)c1cccn(Cc2cccc(F)c2)c1=O)Nc1ccc(Cl)cc1	1	-3
O=C(CCc1ccccc1OC(F)(F)F)N1CCCSCC1	5	1
COc1ccc(/C=C/C(=O)N(CC2CCCO2)c2nc3c(F)cccc3s2)cc1OC (stereo not drawn)	-1	-1
CCn1cncc1CNc1ncnc2sc(C(=O)O)c(C)c12	6	-1
CCCc1nc2ccc(NC(=O)c3c(C)noc3C)cn2n1	-13	-15
Cc1ccc(-n2ccnc(NCc3ccc4c(c3)OCO4)c2=O)cc1F	2	-2
COc1ccc(OC)c(C2SCC(=O)N(CC(=O)NCc3ccccn3)c3c2c(C(C)(C)C)nn3-c2cccc(C)c2)c1 (stereo not drawn)	11	4
O=C1C(=Nn2cnc3c(cnn3-c3ccccc3)c2=O)c2ccccc2N1CO	-4	-13
CC(C)Cc1nc(-c2cccc(CN3CCN(C(=O)c4ccc5cc[nH]c5c4)CC3)c2)no1	2	9
Cc1c(C(C)NCc2ccc(Oc3ncccn3)cc2)cnn1-c1ccc(F)cc1F (stereo not drawn)	6	2
Cc1ccc(N2CC(NC(=O)N(C)C3CCN(C)CC3)CC2=O)cc1 (stereo not drawn)	9	10

Other entries follow:
SMILES	NPYLR7 ag	NPYLR7 ag max-min
Nc1cc(=O)[nH]c(SCc2cc(=O)n3cc(Br)ccc3n2)n1	-2	-4
Cc1n[nH]c(C)c1CCC(=O)N1CCCC2(C1)C(=O)Nc1ccccc12 (stereo not drawn)	7	7
Cn1ncc2c(N3CCOCC3)nc(N3CCN(c4ccccc4)CC3)nc21	0	-2
COc1cc(NC(=O)c2cnn3c(C(F)(F)F)cc(-c4ccc(Br)cc4)nc23)cc([N+](=O)[O-])c1	9	14
Cc1ccc(C(C)C)cc1Oc1c(C#N)c(=O)n(C)c(=O)n1C	1	0
Cc1cccc(OCCCCn2c(CCCO)nc3ccccc32)c1	6	11
CCOC(=O)C1=C(O)/C(=C\c2ccc3c(c2)OCO3)SC1=Nc1ccccc1C	-12	-8
CCc1c(C)nn(-c2ccc(C(=O)Nc3cccc4c3CCCC4)cc2)c1C	-6	-9
Cc1cc(C)n(-c2cccc(CN3CCC4(CCCO4)CCC3=O)c2)n1 (stereo not drawn)	9	2
Cc1ccccc1N1CCN(c2cc(Cl)nc(SCC(=O)NCc3ccccc3)n2)CC1	-6	6
Cc1c(C(=O)NCc2ccc(Cl)c(Cl)c2)sc(=O)n1Cc1ccc(C(=O)N(C)C)cc1	-9	-6
CCC(C)NC(=O)NC(CC)(C(F)(F)F)C(F)(F)F (stereo not drawn)	1	0
Cc1cccc2c1N(C(=O)C1(C)CCCO1)CCC2 (stereo not drawn)	0	-4
Cc1ccccc1C(C)NC(=O)C(C)n1cncn1 (stereo not drawn)	-5	-7
CCN(CC)CCN1CCN(c2cnc(C)cn2)CC1	2	-2
O=C(NC(Cc1ccccc1)c1ccccc1)c1csc(CSc2nnc(-c3cccnc3)n2-c2cccc(C(F)(F)F)c2)n1 (stereo not drawn)	27	25
CCCc1cc(C(=O)N(CCOC)CC2CCN(Cc3ccccc3F)CC2)no1	19	7
O=c1c2ccccc2nnn1CN1CCN(S(=O)(=O)c2ccc3c(c2)CCC3)CC1	0	17
NC(=O)COc1ccc(NC(=O)c2cc(F)c(Cl)cc2Cl)cc1	5	5
CCc1cn[nH]c1C1CCN(C(=O)C2COc3c(cccc3OC)C2)CC1 (stereo not drawn)	1	-6
C(=NNc1ncnc2c1oc1ccccc12)c1c[nH]c2ccccc12	0	26
Cc1cc(C(=O)CSc2nnnn2C2CC2)c(C)n1Cc1cccs1	14	19
CCc1nc(-c2cccc(N)c2)n[nH]1	-12	-18
CC1(C)C2CCC1(CS(=O)(=O)N1CCN=C1Cc1cccc3ccccc13)C(=O)C2 (stereo not drawn)	0	1
CCOC(=O)[C@@H]1CCCC[C@@H]1NC(=O)c1ccc(NC(C)C)nc1	-21	-30

Pulled by structure from the list above, two records:
SMILES	NPYLR7 ag	NPYLR7 ag max-min
Cc1ccccc1C(C)NC(=O)C(C)n1cncn1 (stereo not drawn)	-5	-7
Cc1n[nH]c(C)c1CCC(=O)N1CCCC2(C1)C(=O)Nc1ccccc12 (stereo not drawn)	7	7

(cont.)
SMILES	NPYLR7 ag	NPYLR7 ag max-min
O=c1c(Cl)c(-c2ccccc2)oc2ccccc12	-3	-7
CC(C)N(CC(=O)Nc1cc(C(C)(C)C)nn1-c1ccc(Cl)cc1)C(=O)Nc1cc(C(F)(F)F)cc(C(F)(F)F)c1	-11	-15
Cc1ccccc1Cn1ccnc1CN(C(=O)CC(C)C)C(C)C	1	7
Cc1nccn1CCCNC(=O)c1ccc2nc(Cc3cccc(Cl)c3)oc2c1	0	-6
OCCN1CCN(c2ncnc3c2c(-c2ccccc2)cn3-c2ccc(F)cc2)CC1	3	1
NC(=O)c1csc(C(=O)OCc2cccc3[nH]ccc23)c1	-4	-4
COc1cccc(CSc2nnc(C(C)NC(=O)C(Cl)Cl)n2-c2cc(Cl)ccc2Cl)c1 (stereo not drawn)	-6	5
Nc1c(Cl)cc(S(=O)(=O)Nc2cccnc2N2CCOCC2)cc1Cl	14	9
CC(C)(C)c1ccc(S(=O)(=O)N2CCCC2C(=O)Nc2nnc(-c3ccc(Cl)cc3)s2)cc1 (stereo not drawn)	7	-2
COCCNC(=O)c1c(C)noc1-c1ccco1	-1	6
Cc1ccc2[nH]c(CN3CCN(c4ncccc4C(N)=O)CC3)c(C)c2c1	-2	-2
CC1CCCC(C)N1C(=O)Cn1cnc2c1c(=O)n(C)c(=O)n2C (stereo not drawn)	-1	10
CCCC(=O)Nc1sc2c(c1-c1nc3ccccc3s1)CCN(C(C)=O)C2	5	-1
O=C(NC1CCN(C(=O)c2nc(Cl)c(Cl)c(Cl)c2Cl)CC1)c1ccc[nH]1	11	8
COc1ccc(F)cc1-c1nccc2[nH]nc(-c3cccnc3)c12	3	2
CCCCCC(=O)N(CCC(C)C)CC(=O)Nc1cc(C(C)(C)C)nn1-c1ccc(OC)cc1	10	22
CCOc1ncccc1CN1CCCC(C(=O)NCCNc2cccc3ccccc23)C1 (stereo not drawn)	4	0
CCn1c(CNC(=O)c2ccc3c(c2)OCO3)nc2ccccc21	-5	-7
CCCn1c(SCc2ncc(-c3ccc(Cl)cc3)o2)n[nH]c1=O	-1	-6
Cc1cc(=O)n2nc(CN3CCNC(=O)C3c3c(C)nn(-c4ccccc4)c3C)sc2n1 (stereo not drawn)	1	4
c1ccc(CCc2nn3c(Cn4nnc5ccccc54)nnc3s2)cc1	2	1
S=c1[nH]nc(-c2ccccc2)n1Cc1ccc2c(c1)OCO2	1	0
COc1ccc(CNC(=O)c2sc(=O)n(Cc3ccccc3C)c2C)cc1	16	7
CN(C)S(=O)(=O)CCNC(=O)C(O)c1ccc(C(F)(F)F)cc1 (stereo not drawn)	9&-3	7&-3
COCCn1c(N2CCN(Cc3ccccc3C)CC2)nc2c1c(=O)[nH]c(=O)n2C	7	1

Further results.
SMILES	NPYLR7 ag	NPYLR7 ag max-min
Cc1[nH]ncc1CCCNC(=O)N1CCCC1CC(C)(C)C (stereo not drawn)	-1	12
CCC1=NOC(CNC(=O)Cc2csc(C)n2)C1 (stereo not drawn)	6	2
CCOC(=O)Nc1cc(C(C)(C)C)on1	0	6
C=CCN(C(C)C(=O)c1c(C)c(C(=O)OCC)n(C)c1C)S(=O)(=O)/C=C/c1ccccc1 (stereo not drawn)	-10	-1
NC1=NC(=Nc2ccc(Cl)cc2)c2ccccc21	23	12
O=C(NCc1cccnc1)Nc1ccc2c(c1)OC1(CCCCC1)O2	2	-1
COc1ccc(NC(=O)C2CCN(C(=O)CCNC(=O)Nc3ccc(Br)cc3Cl)CC2)cc1	-2	5
CN1CCN2C[C@@H](NC(=O)c3ccc(-c4ccc(O)cc4)cc3)C[C@H]2C1	11	8
COCOc1cccc(CN2CCC2(C)C(=O)NCCCN2CCCC2=O)c1 (stereo not drawn)	7	2
Cc1ccc(C(=O)Cn2nc(-c3ccco3)c3sc(N4CCOCC4)nc3c2=O)cc1	-3	-6
CCCN1CCC(NC(=O)c2oc3c(C)ccc(C)c3c2C)CC1	8	4
Cn1c(=O)n(CCCO)c(=O)c2c1nc1n2CCN1c1ccc(Cl)cc1	6	2
CCCCCCCC(=O)Nc1c(-c2ccc(OC)cc2)nc2cc(C)ccn12	-9	-2
CCCN(Cc1ccc(OC)cc1)C(=O)c1cnc(OC)nc1	-3	-6
CSc1nc(=O)n(CCO)c2c1CCCC2	-11	-17
Cc1ncnc2c1ncn2-c1cc(O)c(F)c(F)c1	3	1
Cc1[nH][nH]c(=O)c1C(c1ccccc1[N+](=O)[O-])c1c(C)[nH][nH]c1=O	-3	-6
CC1(C)CSC(=NCCc2ccccc2)N1C(=O)/C=C/c1ccco1	9	7
O=C(Nc1ccc(-c2csnn2)cc1)N1CCCC1	-22	-21
COC(=O)c1cc(S(=O)(=O)N(C)Cc2ccc(OC)cc2)cn1C	3	0
COC(=O)C1(C)CCN(C(=O)CSC(C)(C)C)C1 (stereo not drawn)	-1	-4
Cc1cccc(NC(=O)N2CC(=O)N3CCc4c(F)cccc4C3C2)c1 (stereo not drawn)	-7	5
CCN(CC)CCCNc1ccc(C2CCCC2)cc1	-6	-5
Cc1cc(C)n(-c2cc(C)c(C)cc2Br)n1	-13	-18
CCCc1cc(-n2ccnc2CC)n2ncc(-c3ccccc3)c2n1	5	6

(further entries)
SMILES	NPYLR7 ag	NPYLR7 ag max-min
COc1ccccc1CC(=O)N1CCCC2(CNC(=O)O2)C1 (stereo not drawn)	3	2
Cc1ccc(/C=C/C2=NC(=C\c3ccccc3F)/C(=O)O2)cc1	-2	-7
Cn1c(-c2ccccc2)c(C=NNc2nncc3ccccc23)c2ccccc21	4	4
Cn1c(Sc2nc3ncccn3n2)c(C#N)c(=O)n(C)c1=O	-2	-1
Cc1ccc(-n2nc(-c3ccccc3)cc2C(=O)N2CCC(Cc3ccccc3)CC2)c(C)c1	1	9
CCCCCCCCS(=O)(=O)N1CCc2nc(-c3ccccc3)nc(N(C)CC)c2C1	-3	2
Cc1cc(C)c(NC(=O)CN(C)C2CCCCC2)c(Cl)c1	-1	-2
CCS(=O)C1CCCC(NC(=O)CN(C)C(=O)c2ccc(Br)s2)C1 (stereo not drawn)	8	4
Cc1ccc(-c2csc(-n3[nH]c(C)c(N=Nc4ccccc4[N+](=O)[O-])c3=O)n2)cc1	-9	-16
O=S(=O)(CCCOc1ccc2c(c1)OCO2)N1CCCCC1	11	14
CN1CCN(c2cc(NCCCc3nc4ccccc4[nH]3)nc(N)n2)CC1	19	8
O=C1CCCN1CCCC(=O)N1CC[C@@H](N2CCN(c3ccccc3F)CC2)[C@H](O)C1	9	5
CCc1ncc(C(=O)N2CCN(C(C)c3cccc(OC)c3)CC2)[nH]1 (stereo not drawn)	6&-2	-17&-4
O=C(C=Cc1c(F)cccc1Cl)N1CCN(S(=O)(=O)c2cccc(F)c2)CC1	18	7
CN1C(=C2C=NN(c3ccccc3)P2(=S)OCCc2ccccn2)C(C)(C)c2ccccc21 (stereo not drawn)	2	2
CC(=O)Nc1ccc(SCC(=O)Nc2ccc(N3CCCCC3)nc2)cc1	4&-1	2&3
O=C1CCCN1C(=O)CNC(c1ccccc1)c1ccccc1	-1	-1

A draw from above in order of heavy-atom count, descending.
SMILES	NPYLR7 ag	NPYLR7 ag max-min
Cc1ccc(-n2nc(-c3ccccc3)cc2C(=O)N2CCC(Cc3ccccc3)CC2)c(C)c1	1	9
CN1C(=C2C=NN(c3ccccc3)P2(=S)OCCc2ccccn2)C(C)(C)c2ccccc21 (stereo not drawn)	2	2
CCCCCCCCS(=O)(=O)N1CCc2nc(-c3ccccc3)nc(N(C)CC)c2C1	-3	2
Cc1ccc(-c2csc(-n3[nH]c(C)c(N=Nc4ccccc4[N+](=O)[O-])c3=O)n2)cc1	-9	-16
Cn1c(-c2ccccc2)c(C=NNc2nncc3ccccc23)c2ccccc21	4	4
O=C(C=Cc1c(F)cccc1Cl)N1CCN(S(=O)(=O)c2cccc(F)c2)CC1	18	7
CN1CCN(c2cc(NCCCc3nc4ccccc4[nH]3)nc(N)n2)CC1	19	8
CCc1ncc(C(=O)N2CCN(C(C)c3cccc(OC)c3)CC2)[nH]1 (stereo not drawn)	6&-2	-17&-4
CCS(=O)C1CCCC(NC(=O)CN(C)C(=O)c2ccc(Br)s2)C1 (stereo not drawn)	8	4
O=C1CCCN1C(=O)CNC(c1ccccc1)c1ccccc1	-1	-1
O=S(=O)(CCCOc1ccc2c(c1)OCO2)N1CCCCC1	11	14
Cc1cc(C)c(NC(=O)CN(C)C2CCCCC2)c(Cl)c1	-1	-2
